# Compound activity: PubChem, National Center for Advancing Translational Sciences (NCATS)
# VDR inh: blocks the human vitamin D receptor; Potency, µM, for the others: max response, negative = inhibition, hits mostly inhibitors; VDR-SRC2-3 peptide fluorescence polarization, 2 h; actives 0.93% (n = 400,000); P11473; active means well fitted inhibition curve with a large enough effect; inconclusive means small, poorly fitted or top-dose-only effect, or another doubt; inactive means no such curve, though single readings can be large or run the other way; further: series mostly up to about 120 µM
# Target sequence (P11473 whole entry, looked up): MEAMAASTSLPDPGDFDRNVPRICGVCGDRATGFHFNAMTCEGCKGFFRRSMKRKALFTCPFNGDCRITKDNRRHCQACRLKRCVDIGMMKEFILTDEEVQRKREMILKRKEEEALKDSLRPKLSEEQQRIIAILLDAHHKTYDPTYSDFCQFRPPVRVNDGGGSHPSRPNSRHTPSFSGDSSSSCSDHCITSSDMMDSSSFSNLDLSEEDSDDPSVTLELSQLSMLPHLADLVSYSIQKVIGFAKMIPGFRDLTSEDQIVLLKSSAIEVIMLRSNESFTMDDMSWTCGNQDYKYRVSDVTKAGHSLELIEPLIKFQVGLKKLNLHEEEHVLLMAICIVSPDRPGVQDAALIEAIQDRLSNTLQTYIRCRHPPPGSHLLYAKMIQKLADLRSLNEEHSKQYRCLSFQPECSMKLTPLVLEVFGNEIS
#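 Two reagent solutions held at 4 deg C in the dark were dispensed, compounds pinned at 23 nl, and the mixture incubated 2 h at room temperature. Read-out: fluorescence polarization of VDR–SRC2-3 peptide binding.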
# Numbers without * were called inactive; ? = inconclusive; & = joins results of further samples. On the % scale 0 is the no-effect control and ±100 the full control effect; potency means the concentration at half of the fitted maximal effect.
SMILES	VDR inh
Cc1cccc(NC(=S)NC2CCCC2)n1	4%
O=C(NCCc1ccc(Cl)cc1)c1ncn[nH]1	-2%
COc1ccc(C(C)=O)cc1COC(=O)c1ccc2ccccc2n1	8%
O=C(NCc1ccccc1Cl)C1CCN(S(=O)(=O)c2cccc3nonc23)CC1	0%
C[C@H](NC(=O)c1ccco1)C(=O)NCc1cccs1	-6%
COc1ccc(N2CCN(CCNC(=O)Nc3ccc(Cl)cc3)CC2)cc1	-21%
Cc1cc(-c2ccccc2)nc(Oc2ccc(C(C)(C)C)cc2)c1S(C)(=O)=O	6%
O=C(OCc1ccc(F)cc1)c1cc2ccccc2cc1O	-17%
COc1ccc(N2CCN(CCCn3c(=S)[nH]c4ncccc4c3=O)CC2)cc1	2%
CCC1CCCCN1CCCNC(=O)c1cc2c(Cl)nc3ccc(C)cc3c2s1 (centres undefined)	-21%
CCC(C)NC(=O)N[C@@H](CCSC)C(=O)OC (some centres undefined)	14%
O=C(O)CCc1ncc(C(F)(F)F)cc1Cl	-2%
COc1ccc(-c2cn3c(n2)sc2cc(C(=O)NC4CCCCCC4)ccc23)cc1	-4%
O=C(NC1CCCC1)C1CCCN1C(=O)Nc1ccc(Cl)cc1 (centres undefined)	-8%
CC(=O)N(C(C)=O)c1c(C#N)c(C)n(-c2ccccc2)c1C(=O)c1ccccc1	-3%
CCC(C)NC(=O)Nc1ccc(Br)cc1 (centres undefined)	-3%
O=C1N[C@H](Cc2ccccc2)COC(=O)[C@H](Cc2ccc(F)cc2)CC/C=C/C[C@@H]1CC(=O)N(CCO)Cc1ccccc1	10%
O=C(OCC(=O)N1CCN(C(=O)COC(=O)c2ccc(O)cc2O)CC1)c1ccc(O)cc1O	-19%
O=C(NNC(=O)c1ccccc1O)c1ccc(Br)cc1	-8%
COc1c2occc2c(OC)c2c(=O)cc(C(F)(F)F)oc12	-4%
COc1ccc(CCN2C(=O)c3cccc4cccc(c34)C2=O)cc1OC	?
CC(C)C(=O)N1CCN(c2ccc(NC(=O)c3ccc([N+](=O)[O-])o3)cc2)CC1	8%
O=C(C1CCCN(S(=O)(=O)c2ccccc2)C1)N1CCN(c2ccccc2)CC1 (centres undefined)	-3%
COc1cc(NC(=O)c2ccc(Br)o2)ccc1NC(=O)C(C)C	0%
CCOC(=O)/C(C#N)=C/c1cn(CCOc2ccccc2)c2ccccc12	-18%
CCN(CCn1cccn1)C(=O)CC1C(=O)NCCN1Cc1cccc(OC)c1OC (centres undefined)	-6%
Cc1ccccc1NC(=O)NC1(C(=O)NCCCN2CCOCC2)CCCCC1	-9%
O=C(O)c1ccccc1C(=O)N1CCN(c2ncccn2)CC1	-1%
Cc1ccc(-n2c(SCC(=O)Nc3cc(C)on3)nc3ccccc3c2=O)cc1	-8%
Cc1ccccc1-c1nc(SCc2cccnc2)c2c(=O)n(C)c(=O)n(C)c2n1	0%
COc1ccc(Cn2nnc3c(=O)[nH]c(C(=O)NCCc4ccc(F)cc4)nc32)cc1OC	?
CCN(CC)C(=O)[C@H]1C[C@H](CC(=O)NCCCn2ccnc2)C(=O)N2CCc3c([nH]c4cc(-c5ccco5)ccc34)[C@]12C	-13%
CN(C(=O)COC(=O)CN1C(=O)C2CC=CCC2C1=O)c1ccccc1 (centres undefined)	-5%
CC(C)(C)C(=O)NN=C1CCC(c2ccccc2)CC1 (centres undefined)	-28%
COc1ccc(C2Nc3ccccc3NC3=C2C(=O)CC(C)(C)C3)c(OC)c1OC (centres undefined)	-2%
Cn1c(=O)c(-c2ccccc2)nc2ccccc21	7%
Cn1c(/C(C#N)=C(\O)c2ccc(Cl)s2)nc2ccccc21	-7%
COC(=O)/C=C\C(=O)Nc1cccc([N+](=O)[O-])c1	22µM*
Clc1ccc(-c2cn3c(n2)SCC3)cc1	3%
COc1cc2c(cc1OC)CN(C(=O)COc1ccccc1C#N)CC2	-26%

# Arranged by heavy-atom count (ascending): part of the list above
SMILES	VDR inh
Cn1c(/C(C#N)=C(\O)c2ccc(Cl)s2)nc2ccccc21	-7%
COc1cc2c(cc1OC)CN(C(=O)COc1ccccc1C#N)CC2	-26%
Cc1cc(-c2ccccc2)nc(Oc2ccc(C(C)(C)C)cc2)c1S(C)(=O)=O	6%
O=C(C1CCCN(S(=O)(=O)c2ccccc2)C1)N1CCN(c2ccccc2)CC1 (centres undefined)	-3%
O=C1N[C@H](Cc2ccccc2)COC(=O)[C@H](Cc2ccc(F)cc2)CC/C=C/C[C@@H]1CC(=O)N(CCO)Cc1ccccc1	10%

# Among those listed so far, 4 have an NH in an aromatic ring.
SMILES	VDR inh
O=C(NCCc1ccc(Cl)cc1)c1ncn[nH]1	-2%
COc1ccc(N2CCN(CCCn3c(=S)[nH]c4ncccc4c3=O)CC2)cc1	2%
COc1ccc(Cn2nnc3c(=O)[nH]c(C(=O)NCCc4ccc(F)cc4)nc32)cc1OC	?
CCN(CC)C(=O)[C@H]1C[C@H](CC(=O)NCCCn2ccnc2)C(=O)N2CCc3c([nH]c4cc(-c5ccco5)ccc34)[C@]12C	-13%

# (continued)
SMILES	VDR inh
C=CCNC(=O)C1CC=CCC1C(=O)O (centres undefined)	11%
CON(C)S(=O)(=O)c1cccc(C(=O)Oc2ccc(N(C)S(=O)(=O)c3ccccc3)cc2)c1	11%
S=C(NCCc1ccccc1)N1CCOCC1	15%
CCN1CCN(c2ccc(S(=O)(=O)N3CCOCC3)cc2NC(=O)CCSC)CC1	-25%
Oc1c(C=C2N=c3ccccc3=N2)sc(=S)n1-c1ccc(F)cc1	2%&-20%
CC(=O)N1CCCC1c1nc2ccccc2n1Cc1ccccc1Cl (centres undefined)	5%
O=c1cc(CO)occ1OCc1ccccc1	1%
CCOC(=O)[C@H]1[C@H]2COc3ccc(Cl)cc3[C@@H]2N2C(=O)c3cc(F)c(F)cc3NC(=O)[C@@]12C	-28%
O=C1CC(c2ccc(F)cc2)SC(N(c2ccccc2)c2ccccc2)=N1 (centres undefined)	-7%
CC(C)(C)c1ccc(C(=O)NNC(=S)NCC2CCCO2)cc1 (centres undefined)	-15%
COc1ccc(N2CCN(C(=O)C3CC(O)CN3S(=O)(=O)c3ccc([N+](=O)[O-])cc3)CC2)cc1 (centres undefined)	-6%
Cc1ccc(-n2c(Cc3cccn3C)nnc2SCC(=O)NC2CCCCC2)cc1	8%
CCOC(=O)N1CCN(C(=O)C2CCN(S(=O)(=O)c3ccc(OCC)cc3)CC2)CC1	16%
COc1ccc(-n2c(=O)c3ccccc3n(Cc3ccc(F)cc3)c2=O)cc1OC	7%
Cc1ccc(-n2nc3c(=O)n(CC(=O)c4ccc(F)cc4)nc(C)c3c2C)cc1	-4%
COc1ccc(C2CC(=O)N(CC(=O)Nc3cc(C)ccc3C)c3ccccc3S2)cc1 (centres undefined)	-1%

# A second format for some results above:
Structure: O=C1CC(c2ccc(F)cc2)SC(N(c2ccccc2)c2ccccc2)=N1 (centres undefined)
  VDR inh = -7%
Structure: Cc1ccc(-n2c(Cc3cccn3C)nnc2SCC(=O)NC2CCCCC2)cc1
  VDR inh = 8%
Structure: Cc1ccc(-n2nc3c(=O)n(CC(=O)c4ccc(F)cc4)nc(C)c3c2C)cc1
  VDR inh = -4%

# Next part:
SMILES	VDR inh
Clc1ccc(-c2nnc(CSc3nnc(-c4cccs4)n3Cc3ccccc3)o2)cc1	3%
COC(=O)COc1cccc2c(=O)n(CC(=O)N3CCCc4ccccc43)ccc12	-5%
COc1ccc(NC(=O)c2oc3ccccc3c2NC(=O)C2CC2)cc1OC	20%
Cc1cc(Br)ccc1Nc1nc(N)nc(N)c1N=O	1%
O=C(O)C1C2C=CC(C2)C1C(=O)NCc1ccoc1 (centres undefined)	2%
COc1ccc(NC(=O)c2nc[nH]c2C(=O)N[C@H](C)c2ccccc2)cc1	-3%
CCC(C)c1ccccc1N1CC(C(=O)NCCC2=CCCCC2)CC1=O (centres undefined)	-8%
Cc1ccccc1Cn1c(Oc2ccccc2F)nc2c1c(=O)n(C)c(=O)n2C	3%
COc1ccc(C)cc1N(CC(=O)N1CCCCCC1)S(=O)(=O)c1ccc(C)cc1	13%
CCCc1ccc(OCC(O)CN2CCN(c3ccccn3)CC2)cc1 (centres undefined)	-3%
Cc1ccc(NC(=O)CCN2CC(C)OC(C)C2)cc1 (centres undefined)	0%
CC(=O)Cc1nsc(NC(=O)C2Cc3ccccc3C(=O)O2)n1 (centres undefined)	6%
CN1C(CCl)Nc2cc(Cl)c(S(N)(=O)=O)cc2S1(=O)=O (centres undefined)	-19%&2%
COc1ccc(OC)c(S(=O)(=O)NCCc2sc(C)nc2C)c1	9%
CCOc1ccc(N(CC(=O)NC2CCCCC2)C(=O)CNC(=O)c2cccs2)cc1	-7%
CCCC1=Nc2cc(C(=O)NCC(C)c3ccccc3)ccc2Sc2ccccc21 (centres undefined)	0%

# Other structures follow:
Molecule | VDR inh
CC(=O)OC1CC2C(C)(C)C(O)CC(O)[C@@]2(C)C2CC[C@@]3(C)C(=CC(=O)OC3c3ccoc3)[C@]12C (some centres undefined) | -9%
COC(CNC(=O)CNC(=S)N(CCCN1CCOCC1)Cc1cccs1)OC | -1%
O=S(=O)(N/N=C/c1ccc(N2CCOCC2)cc1)c1ccccc1 | 0%
COc1ccccc1C(=O)NC(=S)N1CCCc2ccccc21 | 5%
COc1ccc(CNC(=O)COC(=O)c2ccc(C)c(S(=O)(=O)N3CCOCC3)c2)cc1 | ?
CCCCN(C(=O)COC(=O)c1ccc(C=O)cc1)c1c(N)n(CCC)c(=O)[nH]c1=O | 16%
O=C(COc1ccccc1-c1ccccc1)N/N=C/c1ccccn1 | 0%
Cc1ccc(C)c(Nc2nnc(-c3ccc(C)c(S(=O)(=O)NCC4CCCO4)c3)c3ccccc23)c1 (centres undefined) | -20%
CCOc1ccc(CCNC(=O)COC(=O)c2cccc(S(=O)(=O)N3CCCCC3)c2)cc1OCC | -15%
O=C(c1ccco1)N1CCN(S(=O)(=O)c2cccs2)CC1 | -1%
CNC(=O)NC(=O)COc1ccc2oc3c(c2c1)CCCC3 | -3%
COc1ccc(/C=N/NC(=O)c2ccc(Cl)c(S(N)(=O)=O)c2)cc1OCC(N)=O | -5%
Cc1cccc(NC(=S)N2CCCN(c3ncccc3[N+](=O)[O-])CC2)c1 | -14%
CC(C)NS(=O)(=O)c1ccc(NC(=O)CCc2ccccc2)cc1 | 1%
CCOCCc1nnc(NC(=O)Cc2ccccc2)s1 | -4%
NNC(=O)c1nnn(-c2nonc2N)c1CN1CCc2ccccc2C1 | -12%
CC1CN(Cc2ccccc2)C(=S)NC1=O (centres undefined) | -21%
Cc1ccc(OCC(=O)Nc2ccc(-c3nnc(-c4ccco4)o3)cc2)cc1 | -2%
COc1ccccc1CNC(=O)c1cc2ccccc2oc1=O | -8%
Fc1ccc(-c2nnc3ccc(N4CCc5ccccc5C4)nn23)cc1 | -8%
CCOC(=O)c1ccc(CNC(=O)C(Cc2c[nH]c3ccccc23)NC(C)=O)o1 (centres undefined) | -6%
Cc1cccc(-c2sc(Nc3ccccc3)n[n+]2-c2ccccc2)c1 | -24%
CCc1ccc(-n2c(=O)c3c4c(sc3n(Cc3ccccc3C#N)c2=O)CCCC4)cc1 | -2%
O=C(Nc1ccccc1N1CCCC1)c1ccc(F)c(S(=O)(=O)N2CCOCC2)c1 | -1%
CCCCNC(=O)C1CCCN1C(=O)Nc1ccccc1 (centres undefined) | 17%
Cc1c(C(=O)N/N=C/c2ccc(-c3ccccc3[N+](=O)[O-])o2)sc(N)c1C#N | ?
C=CCNC(=O)CC(=O)N/N=C/c1ccc(C(=O)OC)cc1 | 26%
O=C(NCc1ccco1)C(c1ccc(F)cc1)N(Cc1cccnc1)C(=O)Cn1nnc2ccccc21 (centres undefined) | 8%
COCCNc1nnc(SCC(=O)NNC(=O)c2ccco2)s1 | 4%
CC(C)(C)OC(=O)N[C@@H](Cc1ccccc1)C(=O)N[C@@H](CO)[C@H](O)[C@@H]1C[C@@H]1C(=O)NC1CC1 | -7%
CCOC(=O)c1c(C)[nH]c2ccc(O)cc12 | -19%
CN1C(=O)Cc2cc(S(=O)(=O)CCC(=O)Nc3ccccc3)ccc21 | -8%
Cc1cc(C)cc(NC(=S)N(Cc2cccc(Br)c2)CC2CCC(C(=O)O)CC2)c1 (centres undefined) | 14%
O=C(O)CC1SC(=Nc2ccc(O)cc2)NC1=O (centres undefined) | 1%
O=C(NCc1ccc(Cl)cc1)c1ccc(Cn2c(=O)c3cccn3c3cccnc32)cc1 | -6%
Cn1c(CSc2nc3ccccc3s2)nnc1SCC(=O)NCc1cccnc1 | 0%
COc1ccc(Cn2nnnc2CN2CCCCCC2)cc1 | 5%
CCc1nnc(NC(=O)CSc2nnnn2C)s1 | -2%
O=C(Nc1ccc(OC(=O)c2ccncc2)cc1)c1ccncc1 | 0%
O=c1[nH]c(C2CCN(S(=O)(=O)c3ccccc3)CC2)nc2c1nnn2Cc1c(F)cccc1Cl | 0%
CCn1c(C(C)NC(C)=O)nc2ccccc21 (centres undefined) | 0%
O=C(COC(=O)c1ccccc1C(=O)c1ccccc1)Nc1cccc([N+](=O)[O-])c1 | 5%
Cc1ccc(Cl)cc1NC(=O)CSC(N)=O | 45µM*
C=CCN1C(=O)c2ccccc2Sc2ccc(C(=O)NC(C)C)cc21 | 1%
COc1ccc(-c2cn3cccnc3n2)cc1NC(=O)C(C)Oc1ccccc1 (centres undefined) | 1%
CN(CC(=O)Nc1cccc(F)c1)C(=O)CCCn1c(=O)oc2ccccc21 | -10%
COC(=O)c1c(NC(=O)c2nc(SCc3ccccc3C)ncc2Cl)sc2c1CCCC2 | -5%
COc1ccc(-n2c(SCC(=O)Nc3ccc([N+](=O)[O-])cc3OC)nc3ccccc32)cc1 | -5%
O=C(NC1CCCCCC1)c1cc(=O)[nH]c2ccc(S(=O)(=O)N3CCOCC3)cc12 | -10%
CC(C)(C)c1ccc(OCC(=O)N(Cc2cccs2)C2CCS(=O)(=O)C2)cc1 (centres undefined) | 9%
CC(C)N(C(=O)CSc1nnc(C2CC2)n1C1CC1)c1ccccc1 | 0%

# The list is partial; the hit share may differ from the screen's.
